KCNQ2 inh: KCNQ2 potassium channel inhibitors, primary screen, cell-based, CHO-K1, FluxOR thallium flux, B-score (AID 2156) | O88943 | 20 min; stronger effect = lower value; only compounds with negative scores are shown here; some inactives read as strong as hits | B-score at 10 µM | actives 1.1% (n = 310,000);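 active = fluorescence ratio B-score at most minus 3 library SDs, with starting brightness B-score within 2 library SDs, cut at about -5.5 in these data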
Target sequence (O88943 whole entry, looked up): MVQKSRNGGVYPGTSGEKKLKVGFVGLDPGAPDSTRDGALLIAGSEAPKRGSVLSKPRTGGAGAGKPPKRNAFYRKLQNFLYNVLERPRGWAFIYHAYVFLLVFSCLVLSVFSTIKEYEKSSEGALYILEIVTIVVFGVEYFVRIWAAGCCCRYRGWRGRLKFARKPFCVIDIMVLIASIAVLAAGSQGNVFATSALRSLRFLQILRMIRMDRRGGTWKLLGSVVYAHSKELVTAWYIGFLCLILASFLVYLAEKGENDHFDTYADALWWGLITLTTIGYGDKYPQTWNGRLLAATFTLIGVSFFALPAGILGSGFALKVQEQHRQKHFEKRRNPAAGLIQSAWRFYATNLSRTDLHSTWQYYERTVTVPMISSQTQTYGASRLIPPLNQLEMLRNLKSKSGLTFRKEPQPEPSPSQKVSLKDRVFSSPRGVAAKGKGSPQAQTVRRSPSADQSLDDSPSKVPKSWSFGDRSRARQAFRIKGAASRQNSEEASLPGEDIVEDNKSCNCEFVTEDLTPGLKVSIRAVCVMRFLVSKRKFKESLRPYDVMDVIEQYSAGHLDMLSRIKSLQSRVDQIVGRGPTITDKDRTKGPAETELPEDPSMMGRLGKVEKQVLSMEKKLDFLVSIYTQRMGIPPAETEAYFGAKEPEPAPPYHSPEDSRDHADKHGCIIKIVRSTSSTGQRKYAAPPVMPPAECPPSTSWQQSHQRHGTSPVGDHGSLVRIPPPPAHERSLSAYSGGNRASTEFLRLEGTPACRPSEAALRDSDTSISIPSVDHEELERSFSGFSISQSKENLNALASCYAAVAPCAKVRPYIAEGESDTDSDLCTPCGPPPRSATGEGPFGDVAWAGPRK
KCNQ2 inh baseline: also measured in KCNQ2 inh; calls as there; B-score; measured here: initial fluorescence intensity artifact check;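 brightness before thallium and not channel activity; 0 = typical well and far values either way flag optical interference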
The depositor's hits bear a star; i = inactive.

KCNQ2 inh	KCNQ2 inh baseline	SMILES
i	0.92	Cc1cc(C2=NNC(=NCCc3ccccc3)SC2)c(C)n1CC1CCCO1 (configuration not stated)
i	0.12	COc1ccc(Oc2c(C(F)(F)F)oc3cc(OCC(=O)O)ccc3c2=O)cc1
i	2.3	CCOC(=O)c1c(S(=O)(=O)NCC(=O)Nc2cc(C)ccn2)c(C)n(C)c1C
i	0.58	Cc1ccsc1C1NC(=O)c2ccccc2N1 (configuration not stated)
i	2.5	O=C(O)C1CCN(C(=O)c2ccccc2C(=O)N2CCC(C(=O)O)CC2)CC1
i	1.9	CN(C)C(=O)c1ccc(NC(=O)c2cc(-c3ccco3)nc3ccccc23)cc1
i	0.02	CC(=O)NC12CC3CC(C1)CC(C(=O)OCC(=O)NC(=O)c1cccn1C)(C3)C2
i	0.5	Cc1ccc(-n2ncc3c2CCCC3NC(=O)CCCN2CCCCC2=O)cc1C (configuration not stated)
i	-2.5	CC(C)(C)OC(=O)N1CCC(NC(=O)c2nc[nH]c2C(=O)NCC(=O)OCc2ccccc2)CC1
i	2.5	O=S(=O)(NN=C1CCCCCC1)c1ccc(Cl)cc1
i	-1.7	CCCC(=O)Nc1cc(C)c(NC(=O)c2ccco2)cn1
i	0.87	Cc1ccc(-c2noc(CN3CCC(C(N)=O)CC3)n2)cc1
i	0.88	C=CCn1c(SCc2c(C)noc2C)nc2sc3c(c2c1=O)CCC(C)C3 (configuration not stated)
i	0.01	COCc1[nH]nc2c1C1(C(=O)N(C)c3ccccc31)C(C#N)=C(N)O2 (configuration not stated)
i	-1.2	COc1cc(/C=C2\C(=N)N3N=C(S(C)(=O)=O)SC3=NC2=O)ccc1OCCOc1ccccc1C
i	0.17	CCCCN(C)C(=O)C1CCCN(S(=O)(=O)c2ccc3c(c2)oc(=O)n3C)C1 (configuration not stated)
i	-0.3	COc1ccc(/C=N/n2c(SC)nnc2-c2ccccc2)cc1C
i	-2.1	Cn1c(/C=C/c2cccc([N+](=O)[O-])c2)nc2ccccc2c1=O
i	-0.86	OCCC1CN(C2CCN(c3ccccc3)CC2)CCN1Cc1ccc(F)c(F)c1 (configuration not stated)
i	0.62	Cn1nnnc1SCc1nnc(-c2ccccc2Br)o1
i	0.74	Cc1cc(C(=O)N(CCC#N)Cc2cccs2)no1
i	0.31	COc1ccccc1NC(=O)CN1CCC(c2nc3ccc(C)cc3[nH]2)CC1
i	2.6	CCN(CC)P(=O)(Nc1ccc(C)cc1Br)c1ccc(N(C)C)cc1NC(=O)c1ccco1 (configuration not stated)
i	-0.13	CC1CCN(CCc2nc3cc(NS(=O)(=O)c4ccccc4)ccc3n2C)CC1
i	0.12	COC(=O)/C(C#N)=C/c1c(N2CCN(c3ccc(OC)cc3)CC2)nc2c(C)cccn2c1=O
i	-0.48	Oc1cc(-c2ccccc2)c2ccccc2c1
i	-0.55	Cc1ccc(-n2cc(C(=O)c3ccc(N4CCN(C)CC4)cc3)nn2)cc1Cl
i	-0.42	Cc1[nH]c2ccccc2c1C1(O)C(=O)N(Cc2ccc3c(c2)OCO3)c2ccccc21 (configuration not stated)
i	-1.3	CCOc1cc(NC(=O)c2ccccn2)c(OCC)cc1NC(=O)c1ccccc1
i	-0.88	CN(C)C(CNC(=O)C1CCN(S(=O)(=O)c2cccc(Cl)c2Cl)CC1)c1ccccc1 (configuration not stated)
i	0.79	CCCCC1=CC2=CC(=O)C(C)(OC(=O)CC)C(=O)C2=CN1CC(C)C (configuration not stated)
i	0.78	Cc1sc2nc(C3CC3)nc(NCCNS(=O)(=O)c3ccccc3)c2c1C
i	-0.15	CCCN(CCC)C(=S)NC1CC2C=CC1C2 (configuration not stated)
i	-0.01	O=C(c1cccc2ccccc12)N1CCN=C1SCc1ccc([N+](=O)[O-])cc1
i	-0.26	Cc1ccc(-n2ccnc2SCC(=O)O)cc1C
i	1.6	CCC(=O)NC(=S)Nc1cccc(Cl)c1N1CCCCC1
i	-0.02	COc1ccc2oc(=O)c(C(=O)N3CCN(c4ccccc4C)CC3)cc2c1
i	-0.84	COc1ccc(CCNc2oc(COc3ccccc3Cl)nc2C#N)cc1OC
i	-0.52	COCc1cc(=O)[nH]c(N2CCN(C(=O)c3ccco3)CC2)n1
i	-0.2	C=CCn1c(SCC(=O)/C(C#N)=C(\C)N)nnc1C1CCCCC1
i	0.3	CCCc1ccc(OCCNC(=O)C2CCCCC2)cc1
i	-1.8	Cc1cc(C)nc(SCCCNCc2ccccc2)n1
i	0.02	CC(C)Cn1c2c(c(O)c(C(=O)Nc3ccc(F)cc3)c1=O)CCCC2
i	-0.34	Cc1ccc(OCC(O)Cn2nc(C)cc2C)cc1 (configuration not stated)
-9.2*	1.4*	O=C(NCCC(=O)N(CCc1ccccc1)Cc1ccccc1)c1ccc(Br)cc1

4 records drawn at random from those above, as already listed:
KCNQ2 inh	KCNQ2 inh baseline	SMILES
i	-1.8	Cc1cc(C)nc(SCCCNCc2ccccc2)n1
i	-0.15	CCCN(CCC)C(=S)NC1CC2C=CC1C2 (configuration not stated)
i	0.79	CCCCC1=CC2=CC(=O)C(C)(OC(=O)CC)C(=O)C2=CN1CC(C)C (configuration not stated)
i	0.3	CCCc1ccc(OCCNC(=O)C2CCCCC2)cc1

Additional records follow.
KCNQ2 inh	KCNQ2 inh baseline	SMILES
i	-0.93	Cc1ccc(CNc2ncnc3c2cnn3-c2ccccc2)cc1
i	-1.4	O=C(c1cc(-c2ccccc2)nn1-c1ccccc1)N1CCN(S(=O)(=O)c2c(F)cccc2F)CC1
i	0.13	NC(=O)C1CCN(CC(=O)Nc2nc(-c3ccccc3)cs2)CC1
i	1.1	CC(C)c1ccc(-c2nn[nH]n2)cc1
i	2.8	CN1C2C=C3C(C#N)=C(N)C(C#N)(C#N)[C@@H](c4ccc(Cl)cc4)[C@@H]3C1CC2 (some centres not stated)
i	-1	COCCN(CCOC)S(=O)(=O)c1ccc(Cl)nc1
i	3.4	O=C(NCc1ccc2c(c1)OCO2)c1cc(S(=O)(=O)N2CCCCC2)ccc1F
i	-1.5	CC1CCC(NC(=O)c2nn(C)c3c2CSc2ccccc2-3)CC1 (configuration not stated)
i	0.25	COc1cccc(C2=NOC(C(=O)NCCCn3ccnc3)C2)c1 (configuration not stated)
i	-0.46	O=C(Nc1cccc(Cl)c1)c1ccc(F)c(S(=O)(=O)NCc2cccs2)c1
i	-0.7	FC(F)(F)c1nc2ccccc2n2c(-c3c(Cl)cccc3Cl)nnc12
i	-0.75	CC(C)C(NC(=O)/C(=C/c1ccco1)NC(=O)c1ccc(Br)o1)C(=O)O (configuration not stated)
i	2.2	O=C(NC1CCN(C(=S)Nc2ccc(Cl)cc2)CC1)C1CCCCC1
i	-0.42	Cc1onc(-c2ccccc2Cl)c1C(=O)Nc1nnc(-c2ccc(F)cc2)s1
i	-0.17	Cc1ccccc1NC(=S)N/N=C1\CC(C)(C)Oc2ccc(O)cc21

4 compounds already listed, arranged by their value in KCNQ2 inh baseline, low to high.
KCNQ2 inh	KCNQ2 inh baseline	SMILES
i	-1	COCCN(CCOC)S(=O)(=O)c1ccc(Cl)nc1
i	-0.7	FC(F)(F)c1nc2ccccc2n2c(-c3c(Cl)cccc3Cl)nnc12
i	0.25	COc1cccc(C2=NOC(C(=O)NCCCn3ccnc3)C2)c1 (configuration not stated)
i	3.4	O=C(NCc1ccc2c(c1)OCO2)c1cc(S(=O)(=O)N2CCCCC2)ccc1F

Next part:
KCNQ2 inh	KCNQ2 inh baseline	SMILES
i	0.67	COc1cc(NC(=O)c2cccc(Cl)c2)c(OC)cc1NC(=O)CN1CCOCC1
i	-3.9	Cc1ccc(C)c(N2CCN(C(=O)Cc3ccc(-n4c(=O)[nH]c5ccsc5c4=O)cc3)CC2)c1
i	-0.57	COc1ccccc1NC(=O)/C(=C\c1cccnc1)NC(=O)c1ccccc1
i	0.01	CNC(=O)NC(=O)C(NC1CCCc2ccccc21)c1ccccc1 (configuration not stated)
i	-0.01	CCOc1ccc(NC(=O)c2cccc(-n3cnnn3)c2)cc1
i	-1.6	CCN(CC)S(=O)(=O)c1cccc(-c2nnc(SCC(=O)NC3CCCC3)n2N)c1
i	2.2	CC(=O)c1ccc(NC(=O)CSc2n[nH]c(-c3cccnc3)n2)cc1
i	-1.1	O=C(Nc1ccc(Oc2ccc(NC(=O)Nc3ccccc3Cl)cc2)cc1)Nc1ccccc1Cl
i	-0.47	CC(C)CCC(C)NC(=O)CN1C(=O)NC(C)(c2ccc3ccccc3c2)C1=O (configuration not stated)
i	-0.44	COc1ccc(C(NC(=O)/C=C/c2ccco2)c2ccc(OC)c(OC)c2)cc1OC
i	-1.2	COc1cccc(NC(=O)Cc2c(C(=O)O)[nH]c3ccccc23)c1
i	1.3	COC(=O)C1C(C(=O)OC)C1(c1ccccc1)c1ccccc1 (configuration not stated)
i	-0.86	N#CC1=C2SC=C(c3ccc(Br)cc3)N2CCCC1=O
i	-0.53	O=S(=O)(c1ccccc1)N1CCN=C1SCc1ccc(Cl)c(Cl)c1
i	2.4	CCOC(=O)N1CCN(C(=O)C2CCN(C(=O)c3ccc(C(C)(C)C)cc3)CC2)CC1

Copied from the list.
For KCNQ2 inh baseline, COC(=O)C1C(C(=O)OC)C1(c1ccccc1)c1ccccc1 (configuration not stated) reads 1.3
For KCNQ2 inh baseline, COc1cc(NC(=O)c2cccc(Cl)c2)c(OC)cc1NC(=O)CN1CCOCC1 reads 0.67
For KCNQ2 inh baseline, CC(=O)c1ccc(NC(=O)CSc2n[nH]c(-c3cccnc3)n2)cc1 reads 2.2
For KCNQ2 inh baseline, CCOc1ccc(NC(=O)c2cccc(-n3cnnn3)c2)cc1 reads -0.01
For KCNQ2 inh baseline, O=S(=O)(c1ccccc1)N1CCN=C1SCc1ccc(Cl)c(Cl)c1 reads -0.53

Returning to the listing with the 2 entries that preceded the break.
KCNQ2 inh	KCNQ2 inh baseline	SMILES
i	-0.53	O=S(=O)(c1ccccc1)N1CCN=C1SCc1ccc(Cl)c(Cl)c1
i	2.4	CCOC(=O)N1CCN(C(=O)C2CCN(C(=O)c3ccc(C(C)(C)C)cc3)CC2)CC1
i	-1.7	C=C(C)COc1ccc(-c2ncncc2-c2ccc(OC)cc2)c(O)c1
i	-0.13	COc1ccc(N(C(=O)CNC(=O)c2cccs2)C(C(=O)NCC2CCCO2)c2ccc(OC)c(OC)c2)cc1 (configuration not stated)
i	1.2	COc1ccccc1CNC(=O)C(NC(=O)Nc1ccccc1)C(C)C (configuration not stated)
i	-0.05	NC(=S)N/N=C/c1ncc(C(F)(F)F)cc1Cl
i	-0.97	COc1ccc(-n2ncc3c(=O)n(CC(=O)OCc4ccccc4)cnc32)cc1
i	-2.6	CCCCN=C1NN=C(c2ccc3c(c2)OCCO3)CS1
i	0.05	CCC1(C)CC(=O)N(c2ccc(C(=O)O)c(O)c2)C1=O (configuration not stated)
i	0.54	COc1ccc(-n2c(=S)[nH]c3cc(C(=O)Nc4cc(OC)c(OC)c(OC)c4)ccc3c2=O)c(OC)c1
i	-1.4	COc1ccc(NC(=O)C2CC(=O)N=C(N)S2)cc1 (configuration not stated)
i	1.8	COc1ccc(/C=N/NC(=O)c2cccc(Br)c2)cc1COc1ccccn1
i	0.62	CCc1ccc(OCC(=O)O/N=C(\N)c2ccncc2)cc1
i	-0.04	Cc1ccc(CSCC(=O)N2CCOCC2)cc1
i	-1.9	NC(=NCCc1ccccc1)c1cccc([N+](=O)[O-])c1
i	1.3	O=C(NCCO)C(=O)NCC1CCCN1S(=O)(=O)c1cccs1 (configuration not stated)
i	-0.95	Cc1cc(C(=O)CSc2nnc(Nc3ccccc3)s2)c(C)n1CC1CCCO1 (configuration not stated)
i	2.2	Cc1cccc(C(=O)Nc2c(C(=O)N3CCN(C)CC3)cnn2-c2ccccc2)c1
i	2	NC(=O)CSc1nnc2sc3ccccc3n12
i	0.69	C/C(=N\NC(=S)NC(C)C)c1ccc(Cl)s1
i	-0.89	CN(Cc1ccccc1)C(=O)CSc1cc(=O)n(C)c2ccccc12
i	1.4	Cc1cccc(-n2ncc3c(N4CCOCC4)ncnc32)c1
i	0.05	Oc1ccccc1C1=NCCNC(C(F)(F)F)=C1
i	-0.86	Cn1ccc(C(=O)OCC(=O)Nc2ccccc2Cl)n1
i	-0.36	Cc1ccc(N(O)C(=O)NCCCCNC(=O)N(O)c2ccc(C)cc2)cc1
-8.5*	0.1*	Cc1ccc(Sc2c(C#N)c(-c3ccccc3)nn2C)cc1
i	0.04	Cc1csc(NC(=O)CSc2nnc(-c3cccnc3)o2)n1
i	0.01	CCC1C(=O)N=C(SCC(=O)Nc2ccc(C(=O)OC)cc2)NC1=O (configuration not stated)
i	-0.02	c1ccc(Oc2ccc(-c3ccnc4nc(N5CCOCC5)nn34)cc2)cc1
i	-0.3	Oc1ccc(Cl)cc1-c1cc(-c2ccccc2Cl)[nH]n1
i	-1.5	Cc1ccc(NC(=O)N2CCc3ccccc3C2)cc1
i	0.64	CC12CC3(C)CC(C)(C1)CC(C(=O)NC(=S)N1CCOCC1)(C2)C3
i	-1.2	CCOc1ccc(/C=N/NC(=O)c2cc3c(OC)cccc3[nH]2)cc1
i	-0.97	O=C(NNC(=S)NCc1ccccc1)c1ccccc1OC(F)F
i	-1.3	Cc1cc(-c2ccc(C)c(S(=O)(=O)NCc3cccc(Br)c3)c2)on1
i	0.82	N#Cc1ccc(OCC(=O)OCCCOC(=O)COc2ccc(C#N)cc2)cc1
i	-0.14	Cc1ccc2nc(Cc3ccc(N)cc3)[nH]c2c1
i	5	OCC1(CC2CCCCO2)CCN(Cc2ccccc2-c2ccco2)CC1 (configuration not stated)
i	-0.28	CCOC(=O)CSc1nnc(-c2ccccc2)c(-c2ccccc2)n1
i	0.63	CN(C)CCCn1c(SCC(=O)Nc2sc3c(c2C#N)CCCC3)nnc1-c1ccncc1
i	-0.03	COc1ccc(-c2nc(NC(=O)c3n[nH]c(=O)c4ccccc34)sc2C)cc1
i	-1.7	Cc1cccc(NC(=O)NC2CCCCCCC2)c1
i	0.36	CCN(CC)c1ccc(NC(=O)CN2CCN(c3ccccc3F)CC2)cc1
i	-1.3	C[C@H](N)c1nnc(SCC(N)=O)o1

This is a subset. The share of hits here may be higher or lower than overall.
